Bioassay records as filed in PubChem.
26S disassembly: blocks ATP-dependent breakdown of the yeast 26S proteasome; actives 0.2% (n = 24,000); inhibition of disassembly, % (test concentration not listed); AID 751; anti-FLAG beads, GFP-proteasome disassembly, flow cytometry;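 active means above 40%; inconclusive means likely self-fluorescent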;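 further: plate controls were ATP control with full disassembly for no effect and ATP-gamma-S intact proteasomes for full effect; higher percent means more bead fluorescence retained so stronger block of disassembly; stock transfer was 100 nL into about 10 µL; wells with too few beads may also be inconclusive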
VCAM-1 up: enhancers of VCAM-1 display on endothelial cells, cell-based, plate reader, pooled HUVEC, TNFa stimulus (AID 455); actives 0.2% (n = 10,000); HUVEC TNFa-induced VCAM-1 immunofluorescence, plate reader; numbers were filed only for top-ranked candidate wells; augmentation, % at 5 µM;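 active means a compound raising TNF-alpha-driven VCAM-1 surface staining, with its hit status upheld on visual or statistical review; inactive means the rest, including hits rejected on review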;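 further: 0% = TNFa with vehicle and 100% = strongest image-checked hit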
Active calls of the source: *; i = inactive; ? = inconclusive; . = no result given. Only part of the results is shown; count on the stated rates, not on these rows.

SMILES	26S disassembly	VCAM-1 up
COCCNC(=O)C1CC(=O)N(CCc2ccccc2)C1 (configuration not stated)	-2.4	.
N#CC1=C(N)Oc2n[nH]c(-c3cccs3)c2C1c1cccs1 (configuration not stated)	-1.4	i
CCOc1ccc(C(=O)Nc2ccc(N3CCN(C)CC3)cc2)cc1Br	1.0	i
COc1ccc(C2C(C(=O)N3CCN(c4ccccc4)CC3)c3ccccc3C(=O)N2C)cc1OC (configuration not stated)	-2.1	.
CCc1ccc(NC(=O)N(CCCOC(C)C)C2CCN(C(C)=O)CC2)cc1	0.4	.
CCN(CCCNC(=O)C1CCN(S(=O)(=O)CC)CC1)c1cccc(C)c1	-0.8	.
CCC(Sc1ncccc1C(=O)O)C(=O)N1CCCC1 (configuration not stated)	0.1	i
Cc1ccc2[nH]c3c(N4CCOCC4)ncnc3c2c1	0.0	i
CCN(CC)CCNC(=O)Cn1nc(Cc2cccnc2)c2ccccc2c1=O	-1.9	.
O=C1c2ccccc2NC(c2cnc3ccccc3n2)N1O (configuration not stated)	2.4	.
COc1ccc(OC)c(C2C(C(=O)Nc3ccc(F)cc3)=C(C)Nc3nc(CCCO)nn32)c1 (configuration not stated)	1.7	i
CCOC(=O)C1CCN(c2cc(=O)n(C3CCCCC3)c(=O)[nH]2)CC1	-2.3	.
CCOC(=O)CNC(=O)c1nn(-c2cccc(OC)c2)c(=O)c2ccccc12	-3.2	.
CN1C(=O)CC(C(=O)Nc2ccc(F)cc2)SC1=Nc1ccc2c(c1)OCO2 (configuration not stated)	0.6	i
CN1[C@@H](CC(=O)c2ccccc2)CCC[C@H]1C[C@H](O)c1ccccc1	0.9	i

Among those listed so far, 2 have fluorine.
SMILES	26S disassembly	VCAM-1 up
COc1ccc(OC)c(C2C(C(=O)Nc3ccc(F)cc3)=C(C)Nc3nc(CCCO)nn32)c1 (configuration not stated)	1.7	i
CN1C(=O)CC(C(=O)Nc2ccc(F)cc2)SC1=Nc1ccc2c(c1)OCO2 (configuration not stated)	0.6	i

Next part:
SMILES	26S disassembly	VCAM-1 up
CC(C)CN(C(=O)COC(=O)Cc1n[nH]c(=O)c2ccccc12)C1CCS(=O)(=O)C1 (configuration not stated)	2.3	i
Cc1ccnc(N2C(=O)c3ccccc3C2Nc2cccc(C)c2C)c1 (configuration not stated)	16.7	.
O=C(NC12CC3CC(CC(C3)C1)C2)C1CCCN1C(=O)NC1CCCCC1 (configuration not stated)	-0.1	i
C=CCOC(=O)C1=C(C)Nc2nnnn2C1c1cc(OC)ccc1OC (configuration not stated)	1.3	.
O=C1CN(C(=O)c2ccc(Br)o2)C(c2ccc(F)cc2)c2cc(Cl)ccc2N1 (configuration not stated)	7.4	.
CCN(CC)CCNC(=O)CS(=O)Cc1nc(-c2ccc(C)cc2)oc1C (configuration not stated)	-1.5	.
Cn1c(C(=O)N2CCCC(C(=O)O)C2)cc2sccc21 (configuration not stated)	-1.0	.
CCC1CCCCN1C(=O)Cn1c(C(=O)OC)cc2sc(Cl)cc21 (configuration not stated)	-1.2	i
O=C(Nc1cccc(NC(=O)c2ccco2)c1)c1ccc2c(c1)OCO2	1.1	i
CCOC(=O)N1CCC(N2C(=O)c3ccc(C(=O)Nc4ccc(F)cc4F)cc3C2=O)CC1	-1.1	.
C=CCN(CC=C)C(=O)c1ccncc1	0.1	i
O=C(NC1CC1)c1scc2c1OCCO2	1.3	.
COc1ccc(-c2nc(-c3ccc(NC(=O)c4ccncc4)cc3)no2)cc1OC	3.6	.
CCOC(=O)c1ccc(Nc2ncnc3nc[nH]c23)cc1	-1.3	.
CCOC(=O)N1CCC(NC(=O)CCN2C(=O)C3C4C=CC(C4)C3C2=O)CC1 (configuration not stated)	-1.4	.
O=C(CSc1nc2c(c(=O)n1-c1ccc(Br)cc1)SCC2)Nc1nccs1	0.0	.
COc1ccc(N2CCN(CCCNC(=O)CC3Oc4ccc(C)cc4NC3=O)CC2)cc1 (configuration not stated)	-0.4	i
Cc1ccc(-n2nnc3c(=O)oc4ccccc4c32)cc1	-0.8	.
COc1cccc(-c2nnc(NC(=O)Cc3cccs3)s2)c1	-1.4	i
COCCSc1nnc(NC(=O)CSCc2ccccc2)s1	-0.4	i
COc1ccc(OC)c(-c2nc3c(C)n[nH]c(=O)c3[nH]2)c1	-0.6	i
CCOc1cccc2cc(C(=O)Nc3nccs3)c(=O)oc12	4.0	.
Cn1cc(/C=N/n2cnc3scc(-c4ccc(Cl)cc4)c3c2=O)c2ccccc21	0.7	.
COc1c(Cl)cc(-c2noc(C)c2C(=O)NCc2ccc3c(c2)OCO3)cc1Cl	-0.1	.
Cc1ccc(-n2ncc3c(=O)[nH]c(SCC(=O)N4CCOCC4)nc32)cc1	-0.2	.
Cc1nc(Nc2nc(=O)c3ccccc3n2C)nc2c(C)cccc12	2.8	i
Cc1ccc(NC2c3ncccc3C(=O)N2C2CCCCC2)cc1 (configuration not stated)	-0.4	.
O=C(C1CCC1)N1CCc2cc(S(=O)(=O)NCc3ccco3)ccc21	-0.6	.
CC1CCCCN1C(=O)CSc1nc2cc3c(cc2c(=O)n1Cc1ccc2c(c1)OCO2)OCO3 (configuration not stated)	-1.1	.
CCCCCC#CCC#CCC#CCC#CCCCC(=O)O	1.7	i
COc1ccc(CCNC(=O)Cn2cnc3c2c(=O)n(C)c(=O)n3C)cc1OC	0.5	.
CCn1c(=O)c(C(=O)Nc2cccnc2)c(O)c2ccccc21	5.3	i
CCn1c(=O)c2cc(C(=O)NCCN3CCOCC3)sc2c2ccccc21	3.2	.
CC1CCCCN1S(=O)(=O)c1ccc(NC(=O)c2cccs2)cc1 (configuration not stated)	1.8	i
COc1ccc(S(=O)(=O)NCC2CCC(C(=O)N3CCC4(CC3)OCCO4)CC2)cc1 (configuration not stated)	-1.5	.
CCOC(=O)c1c(N)sn(-c2ccccc2)c1=S	-0.7	i
Cc1cc(C(=O)NC2CCCC2)on1	-1.1	.
COC(=O)c1ccccc1NC(=O)C12CCC(C)(C(=O)O1)C2(C)C (configuration not stated)	0.1	i
Cc1ccccc1C(=O)c1cccn1CC(=O)NCc1ccco1	3.6	.
COc1ccc(CN2C(=O)CCC2(C)C(=O)NC2CCCCC2)c(OC)c1 (configuration not stated)	-1.6	.
O=C(CCCn1c(=O)c2sccc2n(Cc2cc(=O)n3ccccc3n2)c1=O)NCc1ccco1	0.2	i
COc1ccc(OC)c(-c2cc(C(=O)Nc3c(C)nn(Cc4ccccc4Cl)c3C)no2)c1	-0.4	.
Cc1ccc(CC(=O)N2CCC(c3nc4c(nnn4Cc4ccccc4)c(=O)[nH]3)CC2)cc1	0.0	.
CCCn1cc(S(=O)(=O)CC(=O)Nc2ccc(OC)cc2OC)c2ccccc21	-0.1	.
O=C(c1ccco1)N1CCN(c2ncccn2)CC1	0.6	.
Cn1cc(CC(=O)NCCCN2CCCC2=O)c2ccccc21	-0.8	.
COCCNC(=O)c1ccc2c(c1)nc(C)n2-c1cccc(F)c1	0.0	i
CCCS(=O)(=O)N1CCCC(C(=O)NCc2cccnc2)C1 (configuration not stated)	-0.5	.
CCOC(=O)c1c(NC(=O)c2ccc(S(=O)(=O)N3CCOCC3)cc2)sc2c1CCN(C)C2	2.4	.
C=CCNC(=O)c1cc(-c2ccc(Br)cc2)on1	0.1	.
CCOc1ccc(CCNC(=O)CN2CCN(Cc3ccc(F)cc3)C2=O)cc1OCC	-1.3	.
COc1ccc(NC(=O)Nc2ccc(C)cc2OC(F)F)cc1OC	-1.0	i
COc1ccccc1NC(=O)CN1CCN(CC(=O)Nc2ccc3c(c2)OCCO3)CC1	-2.2	.
CCN(c1cccc(C)c1)S(=O)(=O)c1ccc2[nH]c(=O)c(=O)[nH]c2c1	0.9	i
CCc1c(C#N)c(SCc2c(C)noc2C)nc2c1C(=O)CC(C)(C)C2	4.2	.
Cc1ccc(-c2nnn(CC(=O)N(CC(=O)NC3CCCCC3)c3cnc4ccccc4c3)n2)o1	-0.1	i
CCOC(=O)c1ccccc1NC(=O)Cn1cnc2c(cnn2-c2ccc(F)cc2)c1=O	0.1	.
CC1CCN(C(=O)CSc2nnc(-c3cccnc3)n2C2CCCCC2)CC1	-0.6	i
CCCCCC1CCC(C(=O)O)CC1 (configuration not stated)	-1.8	.
O=C(C1CC1)N1CCN=C1SCc1ccc(Cl)cc1	-0.8	.

3 of the compounds above, with each value named.
> COc1ccc(NC(=O)Nc2ccc(C)cc2OC(F)F)cc1OC
  26S disassembly: -1.0	VCAM-1 up: i
> CCN(c1cccc(C)c1)S(=O)(=O)c1ccc2[nH]c(=O)c(=O)[nH]c2c1
  26S disassembly: 0.9	VCAM-1 up: i
> Cn1cc(CC(=O)NCCCN2CCCC2=O)c2ccccc21
  26S disassembly: -0.8	VCAM-1 up: .

Additional compounds.
SMILES	26S disassembly	VCAM-1 up
O=C(O)CCNc1nc(-c2ccccc2)nc2ccccc12	0.3	i
C=CCSc1nnc2c(n1)OC(c1cccnc1)N(C(C)=O)c1ccccc1-2 (configuration not stated)	-1.6	.
CCOC(=O)CSC1=Nc2ccccc2C2=NC(CC(=O)NCc3ccc(OC)cc3)C(=O)N12 (configuration not stated)	-0.5	i
CCOC(=O)C(NC(=O)OC(C)C)(Nc1nccs1)C(F)(F)F (configuration not stated)	-1.1	i
CC(=O)c1ccc(NC(=O)Cn2nc(C)cc2C)cc1	-0.7	.
CCC1C(=O)N=C(SCC(=O)Nc2cccc3ccccc23)NC1=O (configuration not stated)	1.4	i
C1CCc2nnc(-c3nnc4n3CCCCC4)n2CC1	0.1	i
CC1=C(C#N)C(c2ccc3ncccc3c2)C(C#N)=C(C)N1	2.8	i
O=C(C1CCCN(S(=O)(=O)c2cccc3nonc23)C1)N1CCC(Cc2ccccc2)CC1 (configuration not stated)	12.8	i
CC(=O)N1c2c(cc(Br)cc2S(=O)(=O)NCC2COc3ccccc3O2)CC1C (configuration not stated)	-1.5	i
Cc1nc2ncnn2c(C)c1CCC(=O)NCCC1=CCCCC1	-0.9	.
COc1cccc(-c2noc(C3CCCN(C(=O)Cc4ccccc4)C3)n2)c1 (configuration not stated)	0.6	i
O=C(NCC1COc2ccccc2O1)c1ccc(NC(=O)C2CCCO2)cc1 (configuration not stated)	0.3	.
CSc1nc(=NC(C)=O)ss1	-3.7	i
CC(C)=CC(=O)Nc1ccc(Br)cc1	0.6	i
Cc1cccc(C2CC(c3ccccc3)Nc3nc(N)nn32)c1 (configuration not stated)	-1.8	i
C=CCN(C(=O)CNS(=O)(=O)c1ccccc1)C(C(=O)NCCOC)c1ccncc1 (configuration not stated)	0.2	i
Cc1c(N(C)C)nc2ccccc2c1N	-2.8	i
Cc1nc2ccc(S(=O)(=O)NCC(=O)N3CCN(c4ccccn4)CC3)cc2s1	0.6	.
Cc1oc(-c2cccc(Cl)c2)nc1CN1CCCC(C(=O)NCc2ccco2)C1 (configuration not stated)	1.8	.
CCCOc1ccc(C2c3c(oc4cc(C)c(C)cc4c3=O)C(=O)N2CCCN(C)C)cc1OCC (configuration not stated)	-4.2	.
CC(C)C(C(=O)Nc1ccc2c(c1)OCO2)N1C(=O)c2ccccc2C1=O (configuration not stated)	-2.8	i
COc1nc2ccc(C)cc2cc1-c1noc(-c2cccnc2)n1	2.5	i
COc1ccc(OC)c(NC(=O)Nc2nnc(N3CCC(C)CC3)s2)c1	0.4	.
CC(=O)N1CCc2cc(S(=O)(=O)CCC(=O)Nc3c(C)n(C)n(-c4ccccc4)c3=O)ccc21	-0.5	.
CCCCc1c(O)nc(SCCN(C)C)n(-c2ccccc2)c1=O	3.1	i
COc1ccccc1S(=O)(=O)Cc1ccc(C(=O)NCc2cccs2)o1	-3.8	.
CC(O)c1n(C)c(Cl)c[n+]1C (configuration not stated)	1.7	i
C=CCN(C(=O)CSc1nc2[nH]ncc2c(=O)n1-c1ccccc1OC)c1ccccc1	-2.1	.
Cc1nc2ncnn2c(C)c1CCC(=O)NCc1ccccc1	0.3	.

Entries of single compounds, quoted from the list. Screens in order: 26S disassembly, VCAM-1 up
COc1ccc(OC)c(NC(=O)Nc2nnc(N3CCC(C)CC3)s2)c1 as listed: 0.4, .
CCCCc1c(O)nc(SCCN(C)C)n(-c2ccccc2)c1=O as listed: 3.1, i

Other records follow.
SMILES	26S disassembly	VCAM-1 up
Cc1cc(OC(=O)N2CCOCC2)cc(C)c1Cl	-2.0	i
Cc1ccc(S(=O)(=O)N2CCN(c3nc(C(C)C)c4c(c3C#N)CC(C)(C)OC4)CC2)cc1	?	i
CC(C)(C)c1ccc(C(=O)NCCC(=O)NCc2ccco2)cc1	-7.2	.
N#Cc1nc(N)nc(N(c2ccccc2)c2ccccc2)n1	-1.0	.
CC(=O)Nc1cccc(NS(=O)(=O)c2cccc3nsnc23)c1	-1.6	.
CCS(=O)(=O)N1CCC(C(=O)NCCCN2CCCCCC2)CC1	-3.0	.
CC(C)(C)C1CCc2c(sc(NC(=O)c3cc(C4CC4)on3)c2C#N)C1 (configuration not stated)	-0.4	.
CCOc1ccccc1N1CCN(C(=O)c2ccncc2)CC1	4.8	i
O=C(c1ccc(CS(=O)(=O)c2cccc(C(F)(F)F)c2)o1)N1CCN(c2ccccn2)CC1	-0.8	.
COc1ccc(C(C(=O)OCCN(C)C)c2ccccc2)cc1 (configuration not stated)	0.8	.
O=C(CN1CCOc2ccccc21)NCc1ccccc1	-1.3	.
COc1cccc(C(=O)N(CN2CCCC2=O)c2cccc(Cl)c2)c1	0.0	.
O=C1CCc2cc(S(=O)(=O)NC(Cc3ccccc3)C(=O)NC3CCCC3)ccc2N1 (configuration not stated)	-1.5	.
